Vaccinia inh = Vaccinia orthopox stage-specific inhibition. Vaccinia-infected cells, mCherry/Venus stage reporter fluorescence; hits give low values; some inactives read as strong as hits. activity change (mCherry), % (no concentration beside the values). hit rate 0.01% among 89,000. AID 1053133;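 active = mCherry past -33% and 40 or more points under the early reporter, replicates agreeing; inconclusive = past -33% without that gap or agreement; tested in A549 cells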;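 note: scaled between vehicle wells and reference inhibitor wells; 23 nL library stock went into each well; one replicate is shown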
Vaccinia inh Venus = second read-out of Vaccinia inh, no call of its own (marks repeat the call); activity change (Venus), %; measured here: Venus reporter, other viral stage;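 negative = less Venus signal; first of two replicates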
An asterisk follows results filed as active; u = inconclusive; x = no result given; & = joins results of further samples. The list is partial (hit frequency here may not be typical).

canonical_smiles,Vaccinia inh,Vaccinia inh Venus
CCCNC(=O)N1CC(=O)N2[C@@H](CO)[C@H](c3ccc(C#CCC4CCCC4)cc3)[C@@H]2C1,-6.6,-8.9
O=C(C[C@H]1CC[C@H]2[C@@H](COC[C@@H](O)CN2C(=O)c2ccncc2)O1)NC1Cc2ccccc2C1,4.8,10.8
Cc1noc(C)c1NC(=O)Nc1cccc2c1O[C@@H](CN(C)Cc1ccncc1)[C@H](C)CN([C@@H](C)CO)C2=O,18.5,10.3
COC(=O)C[C@@H]1C[C@H]2c3cc(N(C)C)ccc3O[C@H]2[C@H](CO)O1,5.7,6.7
COCC(=O)N1C[C@@H](C)[C@@H](OC)CN(C)C(=O)c2ccc(NC(=O)c3cnccn3)cc2OC[C@H]1C,10.0,12.6
C[C@H](CO)N1C[C@H](C)[C@H](CN(C)S(=O)(=O)c2cccc(F)c2)Oc2ncc(C#CC3CCCC3)cc2C1=O,-28.5,-19.8
CCCC(=O)Nc1ccc2c(c1)C(=O)N(C)C[C@H](OC)[C@@H](C)CN(Cc1ccccc1)[C@@H](C)CO2,-34.1,-24.3
O=C(C[C@@H]1C[C@H]2c3cc(NC(=O)CC4CC4)ccc3O[C@H]2[C@H](CO)O1)NCc1ccc(Cl)cc1,-17.6,3.5
C=CC[C@]12N=C(c3ccc(OCCCO)cc3)O[C@H]1c1ccccc1CN(Cc1ccccc1)C2=O,u,x
O=C(Cc1ccccn1)N1CCCCN2[C@H](C1)[C@H](c1ccc(Br)cc1)[C@@H]2CO,25.1,8.1
C[C@@H]1CN([C@H](C)CO)C(=O)c2cccc(NC(=O)NC3CCCCC3)c2O[C@@H]1CN(C)Cc1ccc(C(=O)O)cc1,13.5,8.1
CN1C(=O)c2cc(NC(=O)Cc3ccccc3)ccc2OC[C@H]2O[C@@H](CC(=O)NC3CCC3)CC[C@H]21,8.2,2.1
COc1ccc2c3c([nH]c2c1)[C@@H](CO)N(C(=O)c1cccc(F)c1)CC31CN(C(C)=O)C1,16.8,-6.3
COc1cccc(-c2cn(CC[C@@H]3CC[C@@H](NS(=O)(=O)Cc4ccccc4)[C@H](CO)O3)nn2)c1,-19.6,-13.3
CN1C(=O)c2cc(NS(C)(=O)=O)ccc2OC[C@@H]2O[C@@H](CC(=O)O)CC[C@H]21,11.3,8.9
COc1ccc2c3c([nH]c2c1)[C@@H](CO)N(C(=O)Nc1ccc(F)cc1)CC31CCN(C(=O)Cc2ccccc2)CC1,13.5,2.6
C[C@H](CO)N1C[C@H](C)[C@@H](CN(C)S(=O)(=O)c2ccc(Cl)cc2)Oc2c(NC(=O)CCCCCC(=O)Nc3ccccc3N)cccc2C1=O,-9.2,-2.8
COc1ccc(NC(=O)Nc2ccc3c(c2)C(=O)N([C@H](C)CO)C[C@H](C)[C@@H](CN(C)S(=O)(=O)c2ccc(OC)cc2)O3)cc1,-11.5,-6.5
CN(C)CC(=O)N[C@@H]1CC[C@H](CC(=O)NCc2ccccc2F)O[C@@H]1CO,-7.3,-6.1
Cc1noc(C)c1S(=O)(=O)Nc1ccc2c(c1)C(=O)N([C@H](C)CO)C[C@@H](C)[C@@H](CN(C)Cc1ccncc1)OCCCC[C@@H](C)O2,3.3,-3.7
Cc1cccc(S(=O)(=O)N[C@@H]2CC[C@H](CCNC(=O)Nc3cc(F)ccc3F)O[C@@H]2CO)c1,-9.8,-5.0
C[C@@H]1CN([C@H](C)CO)C(=O)c2cccc(NC(=O)Nc3ccc(F)cc3)c2O[C@H]1CN(C)Cc1ccc(C(F)(F)F)cc1,-29.7,-12.9
COc1ccc(S(=O)(=O)N(C)C[C@@H]2Oc3ccc(NS(=O)(=O)c4ccc(F)cc4)cc3C(=O)N([C@H](C)CO)C[C@H]2C)cc1,-4.8,5.0
O=C(N[C@H]1CC[C@H](CCNC(=O)C2CC2)O[C@H]1CO)c1ccncc1,7.5,5.2
COc1ccc(S(=O)(=O)N(C)C[C@@H]2OCCCC[C@H](C)Oc3ccc(NC(=O)CCCN(C)C)cc3C(=O)N([C@@H](C)CO)C[C@H]2C)cc1,1.8,-1.6
C[C@H](CO)N1C[C@H](C)[C@H](CN(C)C(=O)Nc2ccc(F)cc2)Oc2ncc(-c3cc4ccccc4o3)cc2C1=O,u,x
CC(C)NC(=O)Nc1ccc2c(c1)C(=O)N([C@@H](C)CO)C[C@H](C)[C@H](CN(C)S(=O)(=O)c1cccs1)OCCCC[C@H](C)O2,-14.5,-12.7
O=S(=O)(c1ccccc1F)N1CCCCN2[C@H](CO)[C@@H](c3ccc(-c4cccnc4)cc3)[C@@H]2C1,9.2,-4.2
C[C@H]1CN([C@@H](C)CO)C(=O)c2cccc(NS(C)(=O)=O)c2O[C@@H]1CN(C)Cc1ccc(C(=O)Nc2ccccc2N)cc1,11.0,1.3
CN1[C@@H]2c3ccc(-c4cccc(F)c4)c(=O)n3C[C@H]1[C@H](CO)[C@H]2C(=O)N1CCOCC1,0.6,-3.7

Single values from the entries so far:
Reading of O=S(=O)(c1ccccc1F)N1CCCCN2[C@H](CO)[C@@H](c3ccc(-c4cccnc4)cc3)[C@@H]2C1 in Vaccinia inh: 9.2
Reading of C[C@H]1CN([C@@H](C)CO)C(=O)c2cccc(NS(C)(=O)=O)c2O[C@@H]1CN(C)Cc1ccc(C(=O)Nc2ccccc2N)cc1 in Vaccinia inh Venus: 1.3
Reading of Cc1noc(C)c1S(=O)(=O)Nc1ccc2c(c1)C(=O)N([C@H](C)CO)C[C@@H](C)[C@@H](CN(C)Cc1ccncc1)OCCCC[C@@H](C)O2 in Vaccinia inh Venus: -3.7

The listing picks up, starting two compounds before the break.
canonical_smiles,Vaccinia inh,Vaccinia inh Venus
C[C@H]1CN([C@@H](C)CO)C(=O)c2cccc(NS(C)(=O)=O)c2O[C@@H]1CN(C)Cc1ccc(C(=O)Nc2ccccc2N)cc1,11.0,1.3
CN1[C@@H]2c3ccc(-c4cccc(F)c4)c(=O)n3C[C@H]1[C@H](CO)[C@H]2C(=O)N1CCOCC1,0.6,-3.7
CO[C@H]1CN(C)C(=O)c2cc(NC(=O)CC(F)(F)F)ccc2OC[C@@H](C)N(S(=O)(=O)c2cn(C)cn2)C[C@@H]1C,8.0,15.9
CN1CCN(C(=O)C[C@@H]2CC[C@H]3[C@@H](COC[C@@H](O)CN3Cc3ccc(Oc4ccccc4)cc3)O2)CC1,-23.4,-25.0
COc1ccc(S(=O)(=O)Nc2ccc3c(c2)C(=O)N([C@H](C)CO)C[C@@H](C)[C@H](CN(C)C(=O)Nc2ccc4c(c2)OCO4)OCCCC[C@@H](C)O3)cc1,-22.7,-10.6
Cc1noc(C)c1S(=O)(=O)Nc1ccc2c(c1)C(=O)N([C@@H](C)CO)C[C@@H](C)[C@H](CN(C)S(=O)(=O)c1ccc(F)cc1)O2,15.1,5.9
Cc1cccc(S(=O)(=O)N2[C@@H]3Cn4c(ccc(-c5ccncc5)c4=O)[C@H]2[C@@H](C(=O)O)[C@@H]3CO)c1,10.4,10.9
C[C@H](CO)N1C[C@H](C)[C@H](CN(C)Cc2ccncc2)Oc2ccc(NS(C)(=O)=O)cc2C1=O,15.5,5.2
C[C@@H]1CCCCO[C@H](CN(C)Cc2ccncc2)[C@H](C)CN([C@H](C)CO)C(=O)c2cc(NC(=O)NC3CCCCC3)ccc2O1,-14.5,-8.3
C[C@H](NC(=O)C[C@H]1CC[C@H](NC(=O)C2CCOCC2)[C@@H](CO)O1)c1ccccc1,2.5,4.0
COc1ccc(CN(C)C[C@H]2Oc3c(NC(=O)Nc4c(C)noc4C)cccc3C(=O)N([C@@H](C)CO)C[C@@H]2C)cc1,-1.8,-0.6
O=C(Nc1ccccc1F)N1C[C@H]2[C@@H](c3ccccc31)[C@@H](CO)N2C(=O)c1ccccc1F,18.3,15.1
COc1ccc(C(=O)Nc2ccc3c(c2)OC[C@@H](C)NC[C@@H](C)[C@@H](OC)CN(C)C3=O)cc1,8.4,18.4
CCCC#Cc1ccc([C@@H]2[C@@H](CO)N3CCCCN(CCC)C[C@@H]23)cc1,-25.3,-20.4
CO[C@@H]1CC[C@H]2CCN(C)C(=O)[C@H](C)CN(C)C(=O)c3cc(C#N)ccc3OC[C@@H]1O2,9.7,1.6
Cc1noc(C)c1S(=O)(=O)Nc1ccc2c(c1)C(=O)N([C@H](C)CO)C[C@@H](C)[C@@H](CN(C)C(=O)c1ccncc1)OCCCC[C@H](C)O2,9.3,2.2
COc1ccccc1C#Cc1ccc([C@H]2[C@@H](CO)N3CCCCN(C(=O)C4CCCC4)C[C@@H]23)cc1,u,x
CN(C)C(=O)c1ccc(-c2ccc3n(c2=O)C[C@@H]2[C@@H](CO)[C@H](C(=O)NCCc4ccccc4)N[C@H]32)cc1,-11.3,-2.9
C[C@@H]1CN([C@@H](C)CO)C(=O)Cc2cc(NC(=O)Nc3ccc(F)cc3)ccc2O[C@@H]1CN(C)C,1.4,-8.4
CCC(=O)N(C)C[C@H]1Oc2cc(-c3ccccc3F)ccc2S(=O)(=O)N([C@H](C)CO)C[C@@H]1C,-7.4,-8.4
C[C@@H]1CN([C@H](C)CO)C(=O)c2cccc(NS(=O)(=O)c3cn(C)cn3)c2O[C@H]1CN(C)C(=O)NC1CCCCC1,16.8,8.1
O=C(C1CCCCC1)N1CC2(C1)[C@H](c1ccccc1)[C@@H](CO)N2Cc1cncnc1,6.5,8.3
C[C@H](CO)N1C[C@H](C)[C@H](CN(C)S(C)(=O)=O)OCCCC[C@H](C)Oc2ccc(NC(=O)CCC(F)(F)F)cc2C1=O,13.8,13.3
Cc1noc(C)c1NC(=O)N[C@H]1C=C[C@@H](CC(=O)N2CCN(C)CC2)O[C@@H]1CO,9.2,11.0
COc1ccc2c3c(n(C)c2c1)[C@H](CO)N(C(=O)CC1CC1)CC31CN(C(=O)CC2CC2)C1,9.2,-1.3
CC(=O)N1CC(=O)N2[C@H](C1)[C@@H](c1ccc(-c3ccc(C(=O)N(C)C)cc3)cc1)[C@@H]2CO,10.2,2.5
COc1ccc(NC(=O)N[C@H]2CC[C@H](CCNC(=O)CN3CCOCC3)O[C@H]2CO)cc1,5.1,8.1
CC(C)NC(=O)N(C)C[C@H]1Oc2ccc(NS(=O)(=O)c3ccc(F)cc3)cc2C(=O)N([C@@H](C)CO)C[C@H]1C,5.7,4.1
Cc1noc(C)c1S(=O)(=O)Nc1ccc2c(c1)C(=O)N([C@H](C)CO)C[C@@H](C)[C@@H](CN(C)S(=O)(=O)c1ccc(Cl)cc1)O2,3.4,-1.9
Cc1noc(C)c1S(=O)(=O)N(C)C[C@H]1OCCCC[C@@H](C)Oc2ccc(NC(=O)Nc3ccc(F)cc3)cc2C(=O)N([C@@H](C)CO)C[C@@H]1C,-0.3,10.6
CCC(=O)N1[C@@H]2c3ccc(-c4ccc(F)cc4)c(=O)n3C[C@@H]2[C@@H](CO)[C@@H]1C(=O)N(C)C,5.0,11.2
Cc1noc(C)c1S(=O)(=O)N(C)C[C@H]1Oc2c(cccc2N(C)C)C(=O)N([C@H](C)CO)C[C@@H]1C,1.8,-0.1
CN1C(=O)c2cc(NC(=O)Nc3ccc(F)cc3)ccc2OC[C@H]2O[C@@H](CC(=O)NC3CCC3)CC[C@H]21,0.0,2.0
COc1ccc(CNC(=O)C[C@H]2CC[C@H](NS(=O)(=O)c3cccc(OC)c3)[C@H](CO)O2)cc1,-1.8,4.7
COc1ccc(NC(=O)Nc2ccc3c(c2)[C@H]2C[C@H](CC(=O)NCCc4ccccc4)O[C@H](CO)[C@H]2O3)cc1,-2.0,-2.2
CN1CCN(C(=O)C[C@@H]2CC[C@H]3[C@H](COc4ccc(NC(=O)c5cccs5)cc4C(=O)N3C)O2)CC1,9.3,11.3
CC(C)NC(=O)Nc1ccc2c(c1)CC(=O)N([C@@H](C)CO)C[C@H](C)[C@H](CN(C)C(=O)Nc1ccc(F)cc1)O2,-11.4,-12.3
C[C@@H]1CN([C@@H](C)CO)C(=O)CCCn2nncc2CO[C@H]1CN(C)Cc1ccc(C(F)(F)F)cc1,-6.8&7.4,-0.4&12.1
CC(C)(C)[Si](C)(C)OC[C@@H]1[C@H]2c3ccccc3O[C@]1(C)NC(=S)N2C(=O)c1ccccc1,-27.0,-19.8
COc1ccc2c3c([nH]c2c1)[C@@H](CO)N(C)CC31CCN(S(=O)(=O)c2ccc(C)cc2)CC1,1.7,-8.5
Cc1ccc(S(=O)(=O)N(C)C[C@@H]2OCCCC[C@H](C)Oc3ccc(NC(=O)Nc4ccccc4)cc3C(=O)N([C@@H](C)CO)C[C@H]2C)cc1,-2.7,15.3
C[C@@H]1CN([C@@H](C)CO)S(=O)(=O)c2ccc(-c3ccncc3)cc2O[C@H]1CN(C)C(=O)Nc1ccc(C(F)(F)F)cc1,5.6,11.0
C[C@H](CO)N1C[C@H](C)[C@H](CN(C)C)Oc2c(NS(=O)(=O)c3cccs3)cccc2C1=O,16.8,13.0
CCCC#Cc1ccc([C@@H]2[C@@H](CO)N(C(=O)C3CCOCC3)[C@H]2C#N)cc1,-4.6,-3.9
O=C(C[C@H]1CC[C@@H]2[C@H](COC[C@@H](O)CN2Cc2ccc3c(c2)OCO3)O1)N1CCOCC1,15.7,8.7
C[C@@H]1CN([C@H](C)CO)C(=O)c2cc(NS(=O)(=O)c3cccs3)ccc2O[C@@H]1CN(C)CC1CC1,6.3,0.7
Cc1noc(C)c1NC(=O)N(C)C[C@@H]1OCCCC[C@@H](C)Oc2ccc(NS(=O)(=O)c3cccs3)cc2C(=O)N([C@H](C)CO)C[C@@H]1C,19.1,0.0
COc1ccc(S(=O)(=O)N(C)C[C@H]2Oc3ccc(NC(=O)CCC(F)(F)F)cc3CC(=O)N([C@@H](C)CO)C[C@H]2C)cc1,-3.0,-5.2
